# Autofluor counter: flagged as autofluorescent in microsphere protease counterscreen; compound autofluorescence counterscreen, microsphere flow cytometry; active compounds read high; fluorescence intensity (test concentration not listed); 360,000 compounds, 3.1% hits; AID 624483;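 active means at least 3 SD above the mean of all compounds, about 16000 in these data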;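 further: 100 nL of 1 mM stock went into each well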
# Numbers without * were called inactive. Some of the compounds tested; the hit share may differ from the screen's.
structure	Autofluor counter
COc1ccc(N2CCN(CCCn3cnc4c(SC)ncnc43)CC2)cc1	3603
CCCCN1C[C@H](CSC)[C@@H](CC(=O)Nc2ccc(Br)cc2)C1=O	3569
COCCNC(=O)c1cc2c(c(-c3cccc(C#CC(C)(C)O)c3)n1)[C@@H](CCO)N(S(=O)C(C)(C)C)C2 (stereo partly specified)	5891
CC(C)(C)OC(=O)NCCc1onc(-c2ccc([N+](=O)[O-])cc2)c1C(=O)O	3619
CCN(CC(=O)Nc1c(F)cccc1F)C(=O)CSCc1ccc(C)cc1	2848
O=C1NC[C@H](CCCCN2C[C@H](Cc3ccc(O)cc3)N(CC3CCCCC3)C(=O)C2=O)N(CCc2ccccc2)C1=O	4983
Cc1ccc(S(=O)(=O)N2C[C@H]3C(=O)C[C@@H](c4cccc5ccccc45)N(S(=O)(=O)c4ccc(C)cc4)[C@H]3C[C@H]2c2ccc(Cl)cc2)cc1	3109
Cc1ccccc1C(=O)N1CCC[C@@H]1C(=O)N1CCC[C@H]1C(=O)NCc1ccncc1	4036
Cn1c(CCN2CCN(c3ccccn3)CC2)nc2cc(NS(=O)(=O)c3ccc(F)cc3)ccc21	3465
Clc1cccc(-c2nc3c4ccccc4ccn3c2Cc2ccccc2)c1	6515
COC(=O)[C@@]1(Sc2ccc(C)cc2)CC(=O)N(c2ccc(Cl)cc2)[C@@H]1c1ccccc1	5439
CCN(CC)C(=O)C1=C(C)N(Cc2ccc(C(C)(C)C)cc2)C(=O)C(CC(=O)NCC2CCCCC2)C1 (stereo unspecified)	3571
CC(=O)Nc1ccc(NC(=O)C2Cc3c(-c4cccc(NC(C)=O)c4)ccnc3O2)cc1 (stereo unspecified)	2860
OCC[C@@H]1C[C@H](O)[C@@H](O)[C@@]2(OCCCc3cc(C(F)(F)F)ccc32)O1	5950
CN1C=CC(=C[N+](=O)[O-])N(C)C1=O	6171
COc1ccncc1-c1ccccc1C1=CC(=O)CC(C)(C)C1=O	3286
C[C@H]1CN([C@@H](C)CO)C(=O)c2cc(-c3cccnc3)cnc2O[C@H]1CN(C)Cc1ccc(Oc2ccccc2)cc1	3158
CC(C)n1nnnc1C1c2ccccc2C(=O)N1Cc1cccc(F)c1 (stereo unspecified)	5599
O=C(COC(=O)c1cccc(F)c1)Nc1cccc(S(=O)(=O)N2CCOCC2)c1	3595
Cc1nc2c(OCc3ccc(Cl)cc3Cl)cccn2c1N(C)Cc1cccs1	3704
CC(C)(C)C(=O)N1CCC2CC1c1cc(-c3ccc4c(c3)OCO4)ccc12 (stereo unspecified)	5238
COC(=O)C1=C(c2ccc(OCc3ccccc3)cc2)C[C@@H]2CC[C@H]1N2C(=O)NCCCCc1ccccc1	3666
CCCNC(=O)C1(C)CCN(C(=O)Cc2ccc3ccccc3c2)C1 (stereo unspecified)	3851
CCC(c1nc2ccccc2[nH]1)N(CCCn1ccnc1)C(=O)c1ccc(C(F)(F)F)cc1 (stereo unspecified)	6131
CCC(=O)N1Cc2cc(C(=O)NCC(F)(F)F)nc(-c3cccc(-c4cncnc4)c3)c2[C@@H]1CCO	5802
COc1ccc(-c2cc3ccccc3c(=O)o2)cc1	4308
CC(C)N1CC2(CC(c3ccccc3C(F)(F)F)=NO2)CN1C(=O)c1ccco1 (stereo unspecified)	3658
O=C(/C=C/[C@H]1O[C@@H](n2cnc3c(NC(=O)c4ccccc4)ncnc32)[C@H](O)[C@@H]1O)NCCc1ccc(F)cc1	6306
O=C(NCc1ccccc1)c1ccc(CS(=O)Cc2cccc(Cl)c2)o1 (stereo unspecified)	3683
CC(=O)N(C)[C@H]1C[C@@H](c2ccccc2)N(C(C)=O)C[C@H]1CO	4168
COc1ccc(-c2nc3ccc(C)cn3c2Cc2ccsc2)cc1OC	6121
CC(C)(C)C(=O)c1c(N)[nH]c(C(=O)c2ccccc2)c1-c1c(F)cccc1F	4543
COC(=O)C1(C(=O)OC)CCCCN(S(=O)(=O)c2ccc(C)cc2)CCC1	4523
CC(C)(C)NC(=S)N1Cc2ccccc2-n2nncc2C1	3726
CCC(c1nnnn1-c1ccc2c(c1)OCCO2)N1CCN(C(=O)c2ccco2)CC1 (stereo unspecified)	5179
CCOC(=O)c1cc(-c2sc(NC(=O)c3ccccc3)nc2C)n(CCO)n1	3473
COc1cccc(C(=O)N2CCC[C@@H]2C(=O)N2CCC[C@@H]2C(=O)NCc2ccccc2Cl)c1	5643
COc1ccc(-c2csc(C(O)c3cccnc3)n2)cn1 (stereo unspecified)	3081
Cc1ccc(Cc2c(-c3cccc(Cl)c3)nc3cc(C)c(Br)c(C)n23)cc1	5438
CCCNC(=O)C1(C)CCCN(C(=O)c2cccnc2Oc2ccccc2)C1 (stereo unspecified)	3351
Clc1ccc(-c2nc3ccc(Cl)cn3c2Cc2ccccc2)cc1	3894
CC(=O)Nc1cccc(-c2ccnc3c2CC(C)(C(=O)Nc2ccc(F)c(Cl)c2)O3)c1 (stereo unspecified)	3465
O=C(NC(c1ccc(Cl)cc1)c1cnccn1)C1CCN(CCOc2ccc(F)cc2)CC1 (stereo unspecified)	3449
Cc1onc(-c2c(F)cccc2Cl)c1C(=O)OCC(=O)N(C)c1ccccc1	3924
COC12CC(=O)C(C(C)=O)=C(O)C1(C)c1c(O)c(C)c(O)c(C(C)=O)c1O2 (stereo unspecified)	4289
CNc1ncnc2c1ncn2[C@H]1CN(Cc2ccc(OC)cc2)C[C@@H](CO)O1	3635
CC1(C(=O)NS(=O)(=O)C2CC2)CCN(C(=O)c2c(F)cccc2F)C1 (stereo unspecified)	3366
O=C(/C=C/[C@H]1O[C@@H](n2cnc3c(NC(=O)c4ccccc4)ncnc32)[C@H](O)[C@@H]1O)NCc1cccc2ccccc12	4316
COc1ccc(C(C)(O)c2nc(-c3ccc(C)c(C)c3)cs2)cc1 (stereo unspecified)	3405
CCC(=O)N(C)C[C@H]1Oc2cc(Br)ccc2S(=O)(=O)N([C@@H](C)CO)C[C@H]1C	3433
Cc1ccc(S(=O)(=O)N2CCCC(C(=O)NCCc3ccc(Cl)cc3)C2)cc1 (stereo unspecified)	3775
O=S1(=O)CC(N2CCN(CC3CC3)CC2)CN1C1CCCCC1 (stereo unspecified)	5766
CSC[C@H]1CN(c2ccc(Br)cc2)C(=O)[C@@H]1CC(=O)Nc1ccccc1	3299
OC(c1ccccc1)(c1ccccc1)C1CCN(CCCOc2ccc(F)cc2)CC1	7082
COc1cccc(C(=O)NCCCNc2nc3cc(C)cc(C)c3cc2C#N)c1	3892
COc1cccc(CNS(=O)(=O)c2cc(Br)ccc2Br)c1	3829

# Entries listed so far that contain a nitro group on carbon (two):
structure	Autofluor counter
CC(C)(C)OC(=O)NCCc1onc(-c2ccc([N+](=O)[O-])cc2)c1C(=O)O	3619
CN1C=CC(=C[N+](=O)[O-])N(C)C1=O	6171

# (list continues)
structure	Autofluor counter
O=C(CCCn1c(=S)[nH]c2ccsc2c1=O)Nc1ccc(F)cc1	4247
CCOC(=O)C1=CCN(S(=O)(=O)c2ccccc2F)C1c1ccc(C)cc1 (stereo unspecified)	4295
CCc1nc2ccc(C(=O)N3CCN(C)CC3)cn2c1N(C)CCC(C)C	3662
O=C(CC1CCCC1)N1CCN(S(=O)(=O)c2cccc(Br)c2)CC1	3508
CC1(C(=O)NCc2cccc3ccccc23)CCN1Cc1ccc(OC(F)(F)F)cc1 (stereo unspecified)	3899
CN(CCC#N)c1ccc(C=C(C#N)c2ccc(Br)cc2)cc1	3868
Cc1ccc(-n2c(=S)[nH]c3ccccc3c2=O)cc1C	3516
CC1(C(=O)NS(=O)(=O)c2ccc(Cl)cc2)CCN1C(=O)COc1ccc(Cl)cc1 (stereo unspecified)	3038
Cc1ccc(Cc2c(-c3ccc(F)cc3)nc3cc(C)ccn23)cc1	4906
O=C(NCC(=O)N1CCCCCCC1)c1ccc(Cl)c(Cl)c1	4694
C[C@@H]1ON(C)[C@H]2C[C@H]3c4[nH]c5ccccc5c4CCN3C(=O)[C@@H]12	3629
COc1cccc(C2=NN(C(=O)C3CC3)C(O)(C(F)(F)F)C2)c1 (stereo unspecified)	3818
NS(=O)(=O)c1ccc(S(=O)(=O)N2CCCC(c3ccccc3)C2)cc1 (stereo unspecified)	2876
CC(C)NC(=O)Nc1nnc([C@H]2C[C@H](O)[C@@H](CO)O2)s1	3663
COc1ccc(OC)c(NS(=O)(=O)c2ccc(-n3cccn3)cc2)c1	3516
CCCCN1CC(N2CCN(C)CC2)CS1(=O)=O (stereo unspecified)	6013
CC(C)(C)c1ccc(CC(=O)N2CCC2(C)C(=O)Nc2cnc3ccccc3c2)cc1 (stereo unspecified)	4053
Cc1ccc(F)c(S(=O)(=O)NC(=O)C2(C)CCN2C(=O)CCC2CCCC2)c1 (stereo unspecified)	3345
COc1ccc2c(CN3CCCCC3)cc(=O)oc2c1	6642
C[C@@H](CO)NC(=O)c1nc[nH]c1C(=O)N[C@H](C)c1ccccc1	3991
Cc1ccc(S(=O)(=O)N2CCN(C(=O)c3cc(C4CC4)nn3-c3ccccc3)CC2)cc1	3095
COCCNC(=O)C1(C)CCCN(C(=O)c2ccc(F)c(Cl)c2)C1 (stereo unspecified)	3857
NS(=O)(=O)c1ccc(NCc2cnc3ccccc3c2)cc1	3721
COCC1CCN(C(=O)c2ccc3oc(C(C)C)nc3c2)C1 (stereo unspecified)	3663

# Structural class: the compounds so far containing an NH in an aromatic ring (6)
structure	Autofluor counter
CCC(c1nc2ccccc2[nH]1)N(CCCn1ccnc1)C(=O)c1ccc(C(F)(F)F)cc1 (stereo unspecified)	6131
CC(C)(C)C(=O)c1c(N)[nH]c(C(=O)c2ccccc2)c1-c1c(F)cccc1F	4543
O=C(CCCn1c(=S)[nH]c2ccsc2c1=O)Nc1ccc(F)cc1	4247
Cc1ccc(-n2c(=S)[nH]c3ccccc3c2=O)cc1C	3516
C[C@@H]1ON(C)[C@H]2C[C@H]3c4[nH]c5ccccc5c4CCN3C(=O)[C@@H]12	3629
C[C@@H](CO)NC(=O)c1nc[nH]c1C(=O)N[C@H](C)c1ccccc1	3991

# (cont.)
structure	Autofluor counter
COc1ccc(Cc2c(-c3ccc(C#N)cc3)nc3c4ccccc4ccn23)c(C)c1	5884
CCCCNC(=O)C1(C)CCN1C(=O)c1ccc2c(c1)C(C)(C)CCC2(C)C (stereo unspecified)	3498
COC(=O)[C@H]1C[C@@]2(O)CN(S(=O)(=O)c3ccc(C)cc3)C[C@@]2(OC(=O)NCC2CCCCC2)C[C@H]1C(=O)OC	3070
O=C1CCC[C@@H]2C=C[C@H](c3ccc(Br)cc3)[C@H]3CCN1[C@@H]32	4241
O=c1cc(CN2CCCCCCC2)c2c(ccc3ccccc32)o1	5647
CCC(c1nnnn1-c1ccc2c(c1)OCCO2)N1CCN(c2ccc(C(F)(F)F)cn2)CC1 (stereo unspecified)	5172
COc1ccc(C(NC(=O)C2CCN(CCOc3ccccc3)CC2)c2ccccn2)cc1 (stereo unspecified)	3481
CC(=O)Nc1cccc(-c2ccnc3c2CC(C)(C(=O)NCCN(C)C)O3)c1 (stereo unspecified)	3055

# Fetched by compound from above:
structure	Autofluor counter
COC(=O)[C@H]1C[C@@]2(O)CN(S(=O)(=O)c3ccc(C)cc3)C[C@@]2(OC(=O)NCC2CCCCC2)C[C@H]1C(=O)OC	3070
COc1ccc(C(NC(=O)C2CCN(CCOc3ccccc3)CC2)c2ccccn2)cc1 (stereo unspecified)	3481
CC(=O)Nc1cccc(-c2ccnc3c2CC(C)(C(=O)NCCN(C)C)O3)c1 (stereo unspecified)	3055
CCCCNC(=O)C1(C)CCN1C(=O)c1ccc2c(c1)C(C)(C)CCC2(C)C (stereo unspecified)	3498

# (further entries)
structure	Autofluor counter
C[C@@H]1Cn2cnc(C(=O)Nc3ccccc3)c2C(=O)N1	3385
COc1ccc([C@H]2CC(=O)C[C@@H](CCn3cc(-c4ccccn4)nn3)O2)cc1	4668
C[C@H]1Cn2cnc(C(=O)Nc3cccc(Cl)c3)c2C(=O)N1	2913
Cc1ccc(CNc2nc(NC(C)C)nc3ccsc23)c(C)c1	3841
COc1ccccc1Cc1c(-c2cccc(Br)c2)nc2c(C)cc(Br)cn12	6767
CCc1nc2ccc(C(=O)NCc3ccc(OC)cc3)cn2c1N(CC)CCN(C)C	3030
CC(C)Cc1nnc(NC(=O)c2ccc(-n3cncn3)c([N+](=O)[O-])c2)s1	2986
COc1ccc(NC(=O)C[C@H]2C(=O)N(CCc3ccccc3)C[C@@H]2C)cc1	3601
Cc1cccc(C)c1-n1nnnc1C(c1cccs1)N1CCN(C/C=C/c2ccccc2)CC1 (stereo unspecified)	4366
Cn1ccc2c(-c3ccc4c(c3)OCCO4)cc3c(c21)C1CCC3O1 (stereo unspecified)	6129
O=C(Oc1ccc(-c2nnco2)cc1)c1cc(S(=O)(=O)N2CCOCC2)ccc1F	3476
O=C(NC1CCCC1)C1c2ccccc2OCC(=O)N1CCCN1CCOCC1 (stereo unspecified)	4419
COCC1CCCCN1C(=O)c1cc(COc2ccc(C)c(C)c2)on1 (stereo unspecified)	4084
C/C(=N/NC(=O)c1nnn(-c2nonc2N)c1CSc1ccc(C)cc1)c1ccncc1	3876
CC1(Cc2ccc(C(F)(F)F)o2)C(=O)Nc2cc(-c3ccc(F)cc3F)ccc21 (stereo unspecified)	3403
COCCNC(=O)C1(C)CCN(C(=O)c2ccc(SC(F)(F)F)cc2)C1 (stereo unspecified)	4248

# Source: PubChem (NMMLSC)
